Bioassay records deposited in PubChem BioAssay by National Center for Advancing Translational Sciences (NCATS).
Cruzain inh Det – qHTS Assay for Promiscuous and Specific Inhibitors of Cruzain (with detergent); 200,000 compounds, 0.43% hits; purified cruzain, Z-FR-AMC fluorescence, 0.01% Triton; Potency, µM, for inactives: max response, negative = inhibition, hits mostly inhibitors;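 further: plate controls were neutral wells for no effect and buffer without enzyme for full effect; nearly all actives have a fitted effect of over 40% in size; top concentration of the series not given in the record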
Target sequence (P25779 123-467 limits assumed): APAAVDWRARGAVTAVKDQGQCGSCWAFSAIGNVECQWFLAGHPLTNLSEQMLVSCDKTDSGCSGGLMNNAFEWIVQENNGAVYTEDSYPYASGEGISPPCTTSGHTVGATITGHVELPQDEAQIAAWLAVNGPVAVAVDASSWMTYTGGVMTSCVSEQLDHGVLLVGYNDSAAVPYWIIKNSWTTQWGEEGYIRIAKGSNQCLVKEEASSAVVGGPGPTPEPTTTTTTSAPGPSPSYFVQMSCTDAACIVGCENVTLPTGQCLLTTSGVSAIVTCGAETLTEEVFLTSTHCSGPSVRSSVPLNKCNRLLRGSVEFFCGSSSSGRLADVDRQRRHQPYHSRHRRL
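Cysteine protease activity tested under reducing, mildly acidic conditions (100 mM sodium acetate pH 5.5, 5 mM DTT) plus 0.01% Triton X-100. Cruzain 1.5 nM; substrate Z-FR-AMC 2 uM; 15 min compound preincubation at room temperature.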
RE007 growth inh – qHTS Assay for Inhibitors of the HIV-1 protein Vpr; Potency, µM (series often up to 92.2 µM), without a hit: top-dose activity change, negative = less growth; AID 651644, 2012; S. pombe RE007 Vpr strain, BacTiter-Glo ATP luminescence, 24 h; control for the full effect not named in the record; 360,000 compounds, 0.21% hits; active = well fitted falling curve with a large enough effect; inconclusive = small, poorly fitted or top-dose-only effect; inactive = no such curve, though single readings can be large or run the other way;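 further: on the % scale 0 is the no-effect control and ±100 the full control effect; nearly all actives have a fitted effect of over 50% in size; the assay follows cell death caused by Vpr and the record does not say whether a fall means rescue or toxicity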
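Fission yeast RE007 carrying one integrated HIV-1 vpr copy, seeded at OD 0.01 in PMG+AL medium with 23 nL pinned compound. Grown 24 h at 30 degrees; viability read by BacTiter-Glo luminescence after 5 min.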
SARS PLP yeast – qHTS of Yeast-based Assay for SARS-CoV PLP. S. cerevisiae expressing SARS-CoV PLpro, growth rescue; control for the full effect not named in the record. Potency, µM (highest dose often 32.9 µM), for the others: at the top dose activity, positive = growth rescue. 330,000 compounds, 0.19% hits. AID 485353, 2010; active means well fitted rising curve with a large enough effect; inconclusive means small, poorly fitted or top-dose-only effect; inactive means no such curve, though single readings can be large or run the other way; further: 0% is about no effect; nearly all actives have a fitted effect of over 55% in size; growth read by luminescence after 48 h
NS1 function inh – qHTS Assay for Inhibitors of Influenza NS1 Protein Function. S. cerevisiae slowed by influenza A NS1, growth recovery by OD600. Potency, µM (top dose mostly 46.1 µM), without a hit: at the top dose activity, positive = more growth. 270,000 compounds, 0.4% hits. AID 2326, 2010; active means well fitted rising curve with a large enough effect; inconclusive means small, poorly fitted or top-dose-only effect; inactive means no such curve, though single readings can be large or run the other way; further: nearly all actives have a fitted effect of over 50% in size
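A cell-based growth assay was used: compounds that relieve NS1-induced slow growth of budding yeast raise OD600. Assay medium was yeast nitrogen base with ammonium sulphate and -URA supplement, pH 6.0, with 2% galactose.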
Cruzain inh noDet – qHTS Assay for Promiscuous and Specific Inhibitors of Cruzain (without detergent) | Cruzipain (Trypanosoma cruzi), P25779 | purified cruzain, Z-FR-AMC fluorescence, no detergent | Potency, µM, for inactives: max response, negative = inhibition, hits mostly inhibitors | 200,000 compounds, 2.3% hits;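 further: plate controls were enzyme without inhibitor for no effect and buffer without enzyme for full effect; nearly all actives have a fitted effect of over 40% in size; top concentration of the series not given in the record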
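Purified cruzain at 1.5 nM, pre-incubated 15 min with compound at room temperature in 100 mM sodium acetate pH 5.5, 5 mM DTT, 0.00005% Triton X-100. Reaction started with 2 uM Z-FR-AMC; AMC fluorescence increase over 60 s gives rate.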
2A StopGo – High Throughput Screening for Foot and Mouth Disease Virus Antivirals | human cells with a luciferase reporter of 2A StopGo recoding; control for the full effect not named in the record | Potency, µM (top dose mostly 57.9 µM), without a hit: at the highest dose signal change, negative = less light | 410,000 compounds, 1.2% hits; active = well fitted falling curve with a large enough effect; inconclusive = small, poorly fitted or top-dose-only effect; inactive = no such curve, though single readings can be large or run the other way; tested in HEK293T cells; further: on the % scale 0 is the no-effect control and ±100 the full control effect; nearly all actives have a fitted effect of over 45% in size; luciferase light after 4 h
LASV entry inh – qHTS for Inhibitors of binding or entry into cells for Lassa Virus; Lassa virus pseudotype entry inhibition, cell reporter; control for the full effect not named in the record; Potency, µM (doses to about 37.9 µM), without a hit: at the top dose activity change, negative = inhibition, most hits filed as inhibitors; 300,000 compounds, 1.2% hits; AID 540256, 2011; active means well fitted inhibition curve with a large enough effect; inconclusive means small, poorly fitted or top-dose-only effect, or effect the other way; inactive means flat fitted curve, though single readings scatter; tested in HEK293 cells; further: on the % scale 0 is the no-effect control and ±100 the full control effect; nearly all actives have a fitted effect of over 50% in size; luciferase read-out
MARV entry inh – qHTS for inhibitors of binding or entry into cells for Marburg Virus; Marburg virus pseudotyped entry inhibition, cell reporter; control for the full effect not named in the record; about a third of the inactives were read at about 46 µM; Potency, µM (doses to about 37.8 µM), for the others: at the highest dose activity change, negative = inhibition, most hits filed as inhibitors; 300,000 compounds, 1.8% hits; active = well fitted inhibition curve with a large enough effect; inconclusive = small, poorly fitted or top-dose-only effect, or effect the other way; inactive = flat fitted curve, though single readings scatter; tested in HEK293 cells; about a fifth of its hits are not listed in these tables; further: on the % scale 0 is the no-effect control and ±100 the full control effect; luciferase read-out
Active calls of the source: *; ? = inconclusive; / = not tested or not shown; & = joins results of further samples; [ ] = dose if it differs, or a comment. Unless noted, the call rests on the fitted dose curve; in most records, active means well fitted curve in the direction sought with a large enough effect; inconclusive means small, poorly fitted or top-dose-only effect, or another doubt; inactive means no such curve, though single readings can be large; an effect the other way counts as inactive or inconclusive. Potency means the concentration at half of the fitted maximal effect.

Values run as follows: Cruzain inh Det, RE007 growth inh, SARS PLP yeast, NS1 function inh, Cruzain inh noDet, 2A StopGo, LASV entry inh, MARV entry inh
> CCCCn1c(=O)[nH]c(=O)c2c1nc(COC(=O)c1c(C)noc1C)n2CCC
→ 1.3%, -10%, 5%, -7%, 5%, -12%, -20%, 9%
> Cc1ccc(C(=O)Nc2ccccc2)cc1S(=O)(=O)N1CCCC1
→ -1.1%, /, /, /, -2%, -3%, -7%[46.1 µM], /
> CCOc1[nH]n(-c2ccc(Cl)cc2)c(=O)c1C=Nc1ccc(OC)cc1
→ -3.3%, -9%, -3%, -17%, -3%, -10%, 2%, -5%
> CCCn1cnc2c(SCc3ccccc3F)nc(N)nc21
→ /, 1%, /, /, /, 31%[activator], ?, ?
> CCCN(CCC)S(=O)(=O)c1ccc(C(=O)Nc2ccc(S(=O)(=O)Nc3nnc(CC)s3)cc2)cc1
→ /, 3%, 2%, ?, /, -5%, -20%, 13%
> COc1ccc(C)cc1NC(=O)c1ccccc1N(C)S(=O)(=O)c1ccccc1
→ /, 9%, -9%, -15%, /, 7%, /, /
> COC(=O)Cn1ncc(N2C3CC(CC(C)(C)C3)C2C)c(Cl)c1=O (centres undefined)
→ -2.0%, -9%, -2%, -20%, -4%, -27%, ?, ?
> CC(=O)N1CCN(S(=O)(=O)c2cccc(C(=O)Nc3ccccc3N3CCCC3)c2)CC1
→ /, 3%, -1%, /, /, -6%, 3%, 18%
> O=C(CN1C(=O)C2CCCCC2C1=O)NC1CCCc2ccccc21 (centres undefined)
→ /, -14%, 1%, /, /, -19%, -2%, 12%
> Cc1ccc(CNC(=O)C(=O)NCC(c2cccs2)S(=O)(=O)c2cccs2)cc1 (centres undefined)
→ -3.0%, /, /, /, 25%, -28%, ?, /
> CCCNC(=O)CN1C(=O)COc2ccc(S(=O)(=O)N3CC(C)CC(C)C3)cc21 (centres undefined)
→ /, 11%, 2%, 2%, /, 16%, -11%[46.1 µM], -19%[46.1 µM]
> CCOc1cc(C(=O)NCc2ccc3c(c2)CCN3C(=O)c2ccc(F)cc2)cc(OCC)c1OCC
→ -0.1%, /, /, /, 22%, -19%, 6%[46.1 µM], /
> Cc1ccc(OCC(=O)Nc2ccc(C(N)=O)cc2)cc1
→ /, 4%, 3%, 0%, /, 19%, 12%, 20%
> Fc1ccc(CSc2nnc(-c3cccs3)o2)cc1
→ -3.1%, 1%, -12%, -72%, 3%, /, ?, ?
> CCc1ccccc1NC(=O)CSc1nc2ncccc2o1
→ -2.4%, /, /, /, -6%, -6%, 14%[46.1 µM], /
> Cc1cccc(OCc2n[nH]c(=S)o2)c1
→ 0.8%, 14%, 1%, 7%, -6%, 51%[activator], 14%, 10%
> O=C(c1ccc(N2CCCC2=O)cc1)N1CCN(c2ccccc2)CC1
→ 5.8%, 9%, 5%, -7%, 0%, 4%, 8%, 4%
> OCCC1CN(Cc2ccccc2OC2CCCC2)CCN1Cc1ccsc1 (centres undefined)
→ /, 6%, 0%, 4%, /, 0%, -13%, ?
> Nc1ccc2c(c1)Cc1c(F)cccc1-2
→ /, -15%, /, /, /, 64%[activator], 0%[46.1 µM], ?
> C=CCN(CC=C)c1nc2ccccc2nc1C(C#N)C(=O)OC(C)C (centres undefined)
→ -11%, -25%, -27%, -17%, -10%, 1%, -2%, ?

Next part:
Values run as follows: Cruzain inh Det, RE007 growth inh, SARS PLP yeast, NS1 function inh, Cruzain inh noDet, 2A StopGo, LASV entry inh, MARV entry inh
> CCN(CCCNC(=O)Cn1ncc2c([nH]c3ccc(C)cc32)c1=O)Cc1ccccc1
→ -1.0%, -13%, -1%, -12%, -3%, -11%&-17%, ?, ?
> CCCCN=C(NNc1ccc(Br)cc1)C(=O)OCC
→ -8.0%, 90%, -80%, -25%, 2%, 24%, 7%, -25%
> COc1ccc(N2CCN(C(=O)Cc3ccc(S(=O)(=O)N4CCOCC4)s3)CC2)cc1
→ /, 12%, -1%, /, /, ?, 0%, ?
> O=C(NCC1CCCO1)C1CCCN(S(=O)(=O)c2cccc(C(F)(F)F)c2)C1 (centres undefined)
→ /, 0%, 1%, -6%, /, -6%, 8%[46.1 µM], 1%[46.1 µM]
> CCn1c(CNC(=O)c2ccccc2F)nnc1SCC(=O)NC1CCCCC1C (centres undefined)
→ /, 10%, 0%, -2%, /, -11%, 1%, -4%
> CCOC(=O)c1ccc(NC(=O)CN2C(=O)C3C4C=CC(C4)C3C2=O)cc1 (centres undefined)
→ -4.0%, 1%, 1%, 2%, 4%, -2%, 13%, 2%
> COc1ccc(C(=O)COC(=O)CSCc2c(C)noc2C)cc1OC
→ -1.7%, 5%, 1%, -53%, -5%, -11%, 3%, 5%
> CCCCNC(=O)c1c(N)n(CCCOC)c2nc3ccccc3nc12
→ -17%, 8%, -10%, -10%, ?, 0%, 20%, ?
> CCn1c(SCC(=O)Nc2ccc(C)cc2)nc2nc3c(cc2c1=O)CCCC3
→ -2.1%, 11%, -4%, 14%, 9%, -12%, 8%, ?
> Cc1ccc(C(=O)N2CCCC2)cc1S(=O)(=O)N1CCCCC1
→ /, 0%, -4%, -2%, /, 0%, -17%, 0%
> CC1CCN(c2ccc3nnc(CCC(=O)N4CCCCC4)n3n2)CC1
→ /, -4%, 9%, 6%, /, -3%, ?, 0%[46.1 µM]
> COc1ccccc1-c1noc(CCC(=O)N2CCN(c3cc(C)ccc3C)CC2)n1
→ /, 20%, 9%, /, /, ?, /, -1%
> CC(C)(C)c1ccc(-c2noc(CCC(=O)Nc3cccc(Cl)c3)n2)cc1
→ -5.5%, /, /, /, ?, -65%, -22%[46.1 µM], ?
> CCc1ccccc1NC(=O)Cn1nnc(-c2nc(-c3ccncc3)no2)c1N
→ -1.1%, /, /, /, 5%, -11%, ?, /
> CCOc1ccc(S(=O)(=O)NCCCN2CCOCC2)cc1
→ 5.0%, 16%, /, 3%, 4%, /, -1%, 3%
> COc1ccccc1CNC(=O)c1oc2c(c1C)-c1nn(Cc3ccc(Cl)cc3)cc1CC2
→ -5.3%, /, /, /, -10%, -26%, 1%[46.1 µM], /
> CCOC(=O)N1CC=C2C(C#N)=C(N)C(C#N)(C#N)[C@H](c3cccs3)C2C1 (some centres undefined)
→ -3.3%, 8%, -7%, 12%, 1%, ?, -14%, ?
> O=C(NCc1ccco1)c1cccc(S(=O)(=O)N2CCCCC2)c1
→ -0.4%, -12%, -15%, -3%, -12%, 8%, -12%, 14%
> CCOc1cccc(=O)c2c(C)n(CC(=O)c3ccccc3)c(C)c12
→ /, 1%, 0%, 17%, /, ?, -17%, -23%[46.1 µM]
> Cn1nccc1/C=N\NC(=O)c1ccc(Cl)cc1
→ /, 11%, 3%, 5%, /, 67%[activator], /, /

Remaining list, next part
Values run as follows: Cruzain inh Det, RE007 growth inh, SARS PLP yeast, NS1 function inh, Cruzain inh noDet, 2A StopGo, LASV entry inh, MARV entry inh
> CCCCOc1ccc(C(=O)N2CCN(CCc3ccncc3)CC2)cc1
→ 4.3%, /, /, /, -4%, -6%, 2%[46.1 µM], -4%[46.1 µM]
> O=c1c2cc(Cl)ccc2[nH]c(=S)n1Cc1ccco1
→ -0.3%, 16%, -4%, 4%, -8%, 7%, 5%, 1%
> O=c1ccn(Cc2ccccc2)c2ccccc12
→ /, 15%, -2%, -8%, /, ?, /, /
> Cc1sc2ncn(CC(=O)NCC(=O)N(C)C3CCCCC3)c(=O)c2c1C
→ 0.2%, 6%, -5%, 6%, -1%, 6%, -7%, -14%
> COc1ccccc1N(CC(=O)NC1CCCC1)C(=O)c1oc(C(C)(C)C)cc1C
→ /, 3%, 0%, 0%, /, -27%, ?, ?
> O=C(NCCCN1CCCCC1)c1ccc2c(c1)NC(=O)C(N1CCOCC1)S2 (centres undefined)
→ 2.6%, -10%, 2%, 5%, 4%, 3%, 4%, -8%
> Cc1cc(OCC(=O)NCc2ccccn2)cc(C)c1Br
→ -2.8%, -9%, -25%, -8%, 20%, 30%, 10%, -5%
> COc1ccc(CCNC(=O)c2n[nH]c3ccccc23)cc1
→ /, 14%, -1%, /, /, 12%, ?, ?
> COc1ccc(-c2cc3nc(-c4ccc(C)cc4)cc(C(F)(F)F)n3n2)cc1
→ -1.3%, /, /, /, 1%, -3%, 9%[46.1 µM], 4%[46.1 µM]
> Cc1ccc(S(=O)(=O)N2CCOC2CNC(=O)C(=O)NCCCN2CCOCC2)cc1 (centres undefined)
→ /, 17%, 4%, -2%, /, -21%, /, /
> COc1ccc(OC)c(CNC(=O)CCc2nc(-c3cccs3)no2)c1
→ 1.6%, -10%, -19%, -17%, 1%, -13%, 6%, 7%
> O=C(NC1CC1)C1CCN(C2CCN(C(=O)c3c(F)cccc3Cl)CC2)CC1
→ /, -11%, -2%, -1%, /, -4%, 18%[46.1 µM], 4%[46.1 µM]
> COc1ccc(C(=O)N2CCN(CC(=O)N3CCOCC3)CC2)cc1
→ /, 1%[18.4 µM], 4%, 7%, /, ?, /, /
> COc1ccc(C2C(C(=O)c3ccco3)=C(O)C(=O)N2CCc2ccccc2)cc1OC (centres undefined)
→ -1.7%, 36%, -5%, ?, 10%, 15%, 3%, 1%
> O=C(NN1C(=O)c2ccc3c4c(ccc(c24)C1=O)CC3)c1ccc(Br)cc1
→ 7.4%, 6%, 4%, 12%, -27%, -5%, ?, -9%
> CCOC(=O)c1ccc(NCC(O)COc2ccccc2)cc1 (centres undefined)
→ -6.2%, -19%, -19%, -7%, 1%, -18%, 0%, -2%[46.1 µM]

Just NS1 function inh and SARS PLP yeast, for 2 of the compounds above:
Compound | NS1 function inh | SARS PLP yeast
O=c1ccn(Cc2ccccc2)c2ccccc12 | -8% | -2%
Cc1sc2ncn(CC(=O)NCC(=O)N(C)C3CCCCC3)c(=O)c2c1C | 6% | -5%
